Lassa entry inh = Lassa virus entry inhibition. Lassa virus pseudotype entry inhibition, cell reporter; control for the full effect not named in the record. actives 1.2% (n = 300,000). Potency, µM (series often up to 37.9 µM), for inactives: top-dose activity change, negative = inhibition, actives largely listed as inhibitors. AID 540256; active means well fitted inhibition curve with a large enough effect; inconclusive means small, poorly fitted or top-dose-only effect, or effect the other way; inactive means flat fitted curve, though single readings scatter; tested in HEK293 cells; also: % is scaled to controls: 0 for no effect and ±100 for the full control effect; nearly all actives have a fitted effect of over 50% in size; luciferase read-out
StopGo reporter = FMDV 2A StopGo reporter, luciferase signal | human cells with a luciferase reporter of 2A StopGo recoding; control for the full effect not named in the record | Potency, µM (series often up to 57.9 µM), for the others: at the highest dose signal change, negative = less light | actives 1.2% (n = 410,000) | AID 1159524; active = well fitted falling curve with a large enough effect; inconclusive = small, poorly fitted or top-dose-only effect; inactive = no such curve, though single readings can be large or run the other way; tested in HEK293T cells; also: % is scaled to controls: 0 for no effect and ±100 for the full control effect; nearly all actives have a fitted effect of over 45% in size; luciferase light after 4 h
Cruzain noTriton = inhibitors of Trypanosoma cruzi cruzain without detergent | P25779 | Potency, µM, for the others: max response, negative = inhibition, most hits filed as inhibitors | actives 2.3% (n = 200,000) | purified cruzain, Z-FR-AMC fluorescence, no detergent;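 also: plate controls were enzyme without inhibitor for no effect and buffer without enzyme for full effect; nearly all actives have a fitted effect of over 40% in size; top concentration of the series not given in the record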
Target sequence (P25779 123-467 limits assumed): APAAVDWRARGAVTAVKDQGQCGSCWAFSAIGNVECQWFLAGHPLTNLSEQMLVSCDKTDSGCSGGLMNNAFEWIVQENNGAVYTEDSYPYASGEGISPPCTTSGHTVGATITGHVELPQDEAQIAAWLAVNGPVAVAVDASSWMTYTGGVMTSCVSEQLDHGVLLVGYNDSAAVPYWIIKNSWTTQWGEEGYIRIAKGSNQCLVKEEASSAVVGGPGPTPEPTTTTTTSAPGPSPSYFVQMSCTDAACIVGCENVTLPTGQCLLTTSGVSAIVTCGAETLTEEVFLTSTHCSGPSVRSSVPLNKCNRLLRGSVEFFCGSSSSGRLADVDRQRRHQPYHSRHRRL
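Purified cruzain at 1.5 nM, pre-incubated 15 min with compound at room temperature in 100 mM sodium acetate pH 5.5, 5 mM DTT, 0.00005% Triton X-100. Reaction started with 2 uM Z-FR-AMC; AMC fluorescence increase over 60 s gives rate.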
RE007 growth inh = less growth of the S. pombe RE007 Vpr strain; S. pombe RE007 Vpr strain, BacTiter-Glo ATP luminescence, 24 h; control for the full effect not named in the record; actives 0.21% (n = 360,000); Potency, µM (series often up to 92.2 µM), without a hit: at the highest dose activity change, negative = less growth; active = well fitted falling curve with a large enough effect; inconclusive = small, poorly fitted or top-dose-only effect; inactive = no such curve, though single readings can be large or run the other way;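 also: % is scaled to controls: 0 for no effect and ±100 for the full control effect; nearly all actives have a fitted effect of over 50% in size; the assay follows cell death caused by Vpr and the record does not say whether a fall means rescue or toxicity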
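Fission yeast RE007 carrying one integrated HIV-1 vpr copy, seeded at OD 0.01 in PMG+AL medium with 23 nL pinned compound. Grown 24 h at 30 degrees; viability read by BacTiter-Glo luminescence after 5 min.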
Cruzain Triton = blocks cruzain activity in presence of Triton detergent | P25779 | Potency, µM, inactives show max response, negative = inhibition, hits mostly inhibitors | AID 1478 | purified cruzain, Z-FR-AMC fluorescence, 0.01% Triton | actives 0.43% (n = 200,000);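 also: plate controls were neutral wells for no effect and buffer without enzyme for full effect; nearly all actives have a fitted effect of over 40% in size; top concentration of the series not given in the record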
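Detergent-containing arm of a paired screen for aggregation-based inhibition: 0.01% Triton X-100 present. Cruzain at 1.5 nM cleaved 2 uM Z-FR-AMC at pH 5.5 with 5 mM DTT; AMC fluorescence gain over 60 s measured activity.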
SARS PLpro yeast = inhibitors of SARS-CoV papain-like protease in yeast | S. cerevisiae expressing SARS-CoV PLpro, growth rescue; control for the full effect not named in the record | Potency, µM (top dose mostly 32.9 µM), without a hit: top-dose activity, positive = growth rescue | actives 0.19% (n = 330,000); active means well fitted rising curve with a large enough effect; inconclusive means small, poorly fitted or top-dose-only effect; inactive means no such curve, though single readings can be large or run the other way; also: 0% is about no effect; nearly all actives have a fitted effect of over 55% in size; growth read by luminescence after 48 h
Marburg entry inh = Marburg virus entry inhibition | Marburg virus pseudotyped entry inhibition, cell reporter; control for the full effect not named in the record; about a third of the inactives were read at about 46 µM | Potency, µM (top dose mostly 37.8 µM), without a hit: at the top dose activity change, negative = inhibition, actives largely listed as inhibitors | actives 1.8% (n = 300,000); active = well fitted inhibition curve with a large enough effect; inconclusive = small, poorly fitted or top-dose-only effect, or effect the other way; inactive = flat fitted curve, though single readings scatter; tested in HEK293 cells; about a fifth of its hits are not listed in these tables; also: % is scaled to controls: 0 for no effect and ±100 for the full control effect; luciferase read-out
NS1 function inh = influenza NS1 inhibition; Potency, µM (series often up to 46.1 µM), without a hit: top-dose activity, positive = more growth; S. cerevisiae slowed by influenza A NS1, growth recovery by OD600; actives 0.4% (n = 270,000); AID 2326; active means well fitted rising curve with a large enough effect; inconclusive means small, poorly fitted or top-dose-only effect; inactive means no such curve, though single readings can be large or run the other way; also: nearly all actives have a fitted effect of over 50% in size
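Growth recovery, yeast-based: influenza A NS1 expressed in S. cerevisiae causes slow growth, and suppressors are detected by OD600. The parent strain without NS1 is used as positive control.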
* hit, by the source's call; ? = inconclusive; · = no result given; & = joins results of further samples; [ ] = another dose, or the depositor's remark. Unless noted, calls follow the shape of the dose curve; as a rule, active = well fitted curve in the direction sought with a large enough effect; inconclusive = small, poorly fitted or top-dose-only effect, or another doubt; inactive = no such curve, though single readings can be large; an effect the other way counts as inactive or inconclusive. Potency is read from the fitted curve at half-maximal effect.

SMILES	Lassa entry inh	StopGo reporter	Cruzain noTriton	RE007 growth inh	Cruzain Triton	SARS PLpro yeast	Marburg entry inh	NS1 function inh
Cc1cccc(-c2noc(Cc3ccc(Cl)cc3)n2)c1	14%	19%	-6%	-8%	-4.9%	-7%	?	-13%
CCN(CC)c1ccc(NC(=O)CSc2nc(C)cc(=O)[nH]2)cc1	·	-8%	-6%	-8%	-1.7%	1%	·	-3%
O=C(NNC(=O)c1cnccn1)c1ccc(Cl)c(Cl)c1	·	-4%	·	-15%	·	2%	·	-34%
O=C(Nc1ccc(NC(=O)C2CC2)cc1)c1cccs1	-14%[46.1 µM]	16%	·	-4%	·	-6%	?	-3%
NC(=O)c1ccsc1NC(=O)CCc1ccccc1	·	42%[activator]	·	-11%	·	2%	·	-41%
COC(=O)C1=C(C)N(Cc2ccccc2)C(=NCc2cc(OC)c(OC)c(OC)c2)N[C@H]1c1ccccc1	·	-17%	·	4%	·	2%&-8%	·	0%&10%
Clc1ccc(CNCC2CCCO2)cc1 (stereo not drawn)	1%	-7%	·	-6%	·	-2%	8%	12%
CCSc1nc(C)c(CCOc2cccc(C)c2)c(=O)[nH]1	-7%	5%	·	1%	·	2%	-7%[46.1 µM]	·
CCOC(=O)C1CCCN(c2c(NCCc3ccc(S(N)(=O)=O)cc3)c(=O)c2=O)C1 (stereo not drawn)	·	-25%	-7%	8%	-0.6%	-2%	·	1%
N#Cc1ccc(Oc2ccc(-c3cnc4ccccc4n3)cc2)cc1C#N	3%	?	?	8%	-2.9%	2µM*	?	10%
CC(C)N(CCn1cnc2c([nH]c3ccccc32)c1=O)C(C)C	·	-9%	·	4%	·	0%	·	1%
Cc1cccc(C)c1Nc1nnc(SCC(=O)NC(=O)c2cccn2C)s1	16%	-8%	-10%	21%	-6.3%	14%	0%	-4%
O=C(O)CONC(=O)c1cc(OCC(F)(F)F)ccc1OCC(F)(F)F	1%	-3%	6%	2%	2.4%	-7%	22%	8%
CN(Cc1ccc(Br)cc1)C(=O)CCN1C(=O)c2cccc([N+](=O)[O-])c2C1=O	14%	-5%	·	13%	·	6%	?	28%
Cc1ccc(Cc2nc3ccccc3nc2SCC(=O)Nc2cccc(C(F)(F)F)c2)cc1	?	-22%	-25%	·	1.8%	·	·	·
COc1ccccc1CNC(=O)c1ccc(CS(=O)(=O)c2ccccc2C)o1	8%[46.1 µM]	?	-13%	-8%	0.0%	-4%	7%&7%[46.1 µM]	-9%
CCOC(=O)CSc1nc2ccccc2c(=O)n1CCN1CCOCC1	31%	-24%	-5%	-10%	-1.3%	8%	5%	-2%
OC(COc1ccc(CNCc2cccnc2)cc1)CN1CCc2ccccc2C1 (stereo not drawn)	·	3%	·	-24%	·	16%	·	-2%
Cc1cc(NC(=O)c2ccc(N3C(=O)CCC3=O)cc2)no1	-6%	14%	-2%	5%	1.9%	9%	?	4%
COc1ccc(CCNC(=S)Nc2ccccc2C)cc1	12%	7%	-6%	7%	-0.3%	26%	10%[46.1 µM]	-8%
Cc1ccc(S(=O)(=O)NCCSc2nnnn2-c2ccc(C(N)=O)cc2)cc1	·	-1%	-3%	-10%	3.1%	-1%	-3%	-8%
OCCN1CCN(CCSc2ccccc2)CC1	-3%	15%	-10%	1%	3.9%	-5%	10%	-3%
CCOC(=O)c1[nH]c2ccccc2c1NC(=O)c1nonc1C	18%	-20%	12%	-16%	7.1%	-2%	17%	-10%
C=CCn1c(SCC(=O)Nc2ccc(C(=O)OC(C)C)cc2)nnc1-c1cccs1	11%	?	-1%	-10%	-10%	-1%	-20%	-1%
CCCCCCOc1ccc(N2C(=O)CC(N3CCN(CCN=CC4=C(O)CC(C)(C)CC4=O)CC3)C2=O)cc1 (stereo not drawn)	·	?	·	0%	·	0%	·	-1%

Other structures:
SMILES	Lassa entry inh	StopGo reporter	Cruzain noTriton	RE007 growth inh	Cruzain Triton	SARS PLpro yeast	Marburg entry inh	NS1 function inh
COc1cc2nc(CN3CC=C(c4ccccc4)CC3)[nH]c(=O)c2cc1OC	?	-11%	·	5%	·	·	16%[46.1 µM]	-7%
CC(C)CCNC(=O)[C@H](CC(C)C)NC(=O)[C@H]1O[C@@H]1C(=O)O	1%	·	0.1µM*	·	0.1µM*	0%	?	2%
Cc1cccc(-n2c(C)c(C)c3c(N)ncnc32)c1	-5%	-6%	·	3%	·	-1%	2%	20%
COc1cc2c(C)nc3c(cnn3-c3ccccc3)c2cc1OC	?	8%	·	-11%	·	0%	2%	-2%
O=C(COc1ccc(Br)cc1CNC1CCCC1)Nc1ccccc1	-22%[46.1 µM]	-17%	·	-8%	·	0%	1.8µM*	0%
CS(=O)(=O)Nc1ccccc1C(=O)NCCSCc1ccccc1	-9%	-16%	·	-13%	·	-1%	-2%[46.1 µM]	-5%
O=C(C1CCCN(S(=O)(=O)c2ccc(Br)s2)C1)N1CCN(c2ccc(F)cc2)CC1 (stereo not drawn)	-22%[46.1 µM]	?	3%	·	-1.3%	·	?	·
CC(C)CN1CCN(Cc2cccn2-c2ccc(Cl)cn2)CC1CCO (stereo not drawn)	?	5%	·	-17%	·	0%	?	-3%
O=C(Nc1c2c(nn1-c1ccc(F)cc1)CS(=O)C2)c1ccc(Br)o1 (stereo not drawn)	6%	8%	·	-9%	·	0%	26%	21%
Nc1c(C(=O)Nc2ccc(OC(F)(F)F)cc2)sc2nc3c(cc12)N1CCC3CC1	-21%[46.1 µM]	25µM*	18%	·	2.3%	·	-23%[46.1 µM]	·
CN(C)C(=O)c1cc([N+](=O)[O-])ccc1O	·	-6%	·	-11%	·	-1%	·	10%
CS(=O)(=O)N1CCN(c2ccccc2NC(=S)NC(=O)c2cccs2)CC1	?	?	·	16%	·	-1%	?	6%
Cc1cc(=O)oc2cc(NC(=O)CCCC(=O)O)ccc12	12%	-23%	-20%	-3%	-25%	4%	10%	?
Cc1cc2oc(=O)cc(CN3CCN(S(=O)(=O)c4ccc5c(c4)OCCO5)CC3)c2cc1C	-23%	11%	?	-2%	1.4%	-1%	-14%&-14%	2%
CCn1c(C)nc2cc(C(=O)n3cc(C(=O)c4ccccc4O)cn3)ccc21	·	·	-12%	·	-0.8%	4%	·	-20%
COc1cccc(CCNC(=O)C2CCC(=O)N(Cc3cccc(OC)c3)C2)c1 (stereo not drawn)	·	-8%	·	7%	·	-2%	·	1%
O=C(COC(=O)c1cn(-c2ccccc2)nc1-c1ccccc1)c1ccc([N+](=O)[O-])cc1	1%	·	?	·	-1.6%	-6%	-3%	?
Cc1ccc(Oc2ncccc2NC(=O)CC(CC(=O)O)c2ccccc2)c2c1CCC2 (stereo not drawn)	7%[46.1 µM]	-3%	·	-12%	·	0%	?	?
C/C(Cl)=C/Cn1c(SCc2ccc(Cl)cc2)nc2c1c(=O)[nH]c(=O)n2C	4%	0%	?	5%	0.8%	2%	?	4%
Nc1ccc2c(c1)C(=O)N(CCCCCC(=O)O)C2	-10%	7%	-4%	3%	-1.7%	-5%	?	-1%
COc1ccc(NC(=O)Cc2coc3cc(C)ccc23)cc1S(=O)(=O)N1CCOCC1	?	64%[activator]	?	6%	-7.3%	-13%	?	7%
COCCSc1ccccc1C(=O)Nc1ccc(Cl)cn1	9%	-23%	7%	?	0.5%	-4%	24%	-8%
CCOC(=O)N1CCN(CC(=O)Nc2cc(C)nn2-c2nc3ccccc3s2)CC1	?	·	?	1%	-0.9%	-24%	5%&-15%	-8%
COc1ncccc1C(=O)NC1CCCc2c1cnn2-c1ccc(C)c(C)c1 (stereo not drawn)	·	-40%	·	-19%	·	-10%	·	-66%
COc1ccc(N2CCN(C(=O)CCS(=O)(=O)c3cc4c(cc3Cl)NC(=O)CO4)CC2)cc1	-15%[46.1 µM]	?	-3%	·	-1.9%	·	·	·

Some values from the list.
Cruzain Triton with `O=C(O)CONC(=O)c1cc(OCC(F)(F)F)ccc1OCC(F)(F)F` : 2.4%
NS1 function inh with `CCN(CC)c1ccc(NC(=O)CSc2nc(C)cc(=O)[nH]2)cc1` : -3%

(listing goes on)
SMILES	Lassa entry inh	StopGo reporter	Cruzain noTriton	RE007 growth inh	Cruzain Triton	SARS PLpro yeast	Marburg entry inh	NS1 function inh
CC(C)(CSc1nncn1/N=C/c1ccco1)NS(=O)(=O)c1ccc(Cl)cc1	-2%	0%	-9%	-10%	0.5%	-10%	0%&0%	0%
O=C(COc1ccccc1)NC(=S)Nc1ccc(Br)cn1	·	26%	·	9%	·	0%	·	1%
Cc1ccccc1/C=C\c1nc(O)c([N+](=O)[O-])c(=O)[nH]1	·	11%	·	19%	·	0%	·	5%
OC(CNCc1ccc(F)cc1)(c1ccccc1)c1ccc(F)cc1 (stereo not drawn)	0%	-9%	1%	1%	0.2%	5%	-19%	4%
CC(=O)Nc1ccccc1-c1ccc(C)o1	0%	12%	0%	-27%	-1.5%	5%	?	-5%
CCn1c2c(c(=O)n3ncc(C(=O)Nc4cc(Cl)ccc4C)c13)CN(Cc1ccc(OC)cc1)CC2	30%[46.1 µM]	?	27%	·	-6.5%	·	·	·
Cc1c(C(=O)N(C)C)sc(NC(=O)c2cc([N+](=O)[O-])cc([N+](=O)[O-])c2)c1C#N	?	-15%	-2%	-3%	-9.3%	2%	-5%	2%
CCOc1ccc(S(=O)(=O)NC(C)C(=O)NCc2ccncc2)cc1 (stereo not drawn)	23%[46.1 µM]	29%	·	-3%	·	1%	1%[46.1 µM]	10%
Cc1cccc(N/C=C/C(=O)c2ccc(Cl)cc2)c1	·	44%[activator]	·	10%	·	1%	·	-4%
Cc1ccccc1-c1nnn(CC(=O)NC(=O)NC2CCCC2)n1	1%	-13%	·	11%	·	11%	?	·
Cc1ccccc1-n1c(SCC(=O)NCc2cccs2)nnc1-c1ccncc1	14%	-18%	11%	-7%	-2.2%	0%	6%	-2%
CCOC(=O)NC(=S)Nc1cccc(NC(=S)NC(=O)OCC)c1	-13%[46.1 µM]	-17%	·	4%	·	1%	2%[46.1 µM]	3%
COc1ccc(Nc2cc(C)c3c(O)cccc3n2)cc1	·	5%	·	-8%	·	-1%	·	-43%
N#CCC(=N)N1CCN(c2ccc(F)cc2)CC1	7%[46.1 µM]	-2%	·	5%	·	-1%	-13%[46.1 µM]	·
